High-throughput results from PubChem BioAssay.
MT1-MMP promoter: inhibitors of MT1-MMP promoter transcription, cell-based, luciferase reporter, luminescence (AID 618) | MT1-MMP promoter luciferase reporter cells, luminescence | calls from a first round at 10 µM; hits with a dose series show EC50 in µM | 87,000 tested, 0.62% active;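 active = over half of the reporter light lost at 10 µM or EC50 under 50 µM; inactive = the rest and hits that failed the dose series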;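 note: actives suppress MT1-MMP promoter-driven transcription so potencies describe inhibitors; HT1080 fibrosarcoma cells; overnight exposure; toxic or luciferase-blocking compounds were not removed from the actives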
WNV protease inh: WNV NS2B-NS3 proteinase inhibition. P06935. WNV NS2B-NS3 protease, fluorogenic substrate Ex360/Em465; stronger effect = lower value. 65,000 tested, 0.18% active. z-score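 (tested at a level between 10 and 100 µM)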;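 active = z-score at -3 or under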;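 note: score is relative to mean and spread of the compound wells of a plate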
Target sequence (P06935 1371-1501 limits assumed): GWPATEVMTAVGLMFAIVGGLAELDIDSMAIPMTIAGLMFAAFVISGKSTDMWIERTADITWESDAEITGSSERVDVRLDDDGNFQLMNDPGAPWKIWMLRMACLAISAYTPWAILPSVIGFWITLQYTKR
Target sequence (P06935 1502-1679 limits assumed): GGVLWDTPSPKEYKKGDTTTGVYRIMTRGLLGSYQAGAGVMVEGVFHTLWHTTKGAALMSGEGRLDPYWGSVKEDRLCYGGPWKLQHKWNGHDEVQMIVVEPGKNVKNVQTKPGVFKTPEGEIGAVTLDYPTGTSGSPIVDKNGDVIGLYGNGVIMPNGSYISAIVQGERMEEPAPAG
Active calls of the source: *; i = inactive; x = not tested or not shown; & = joins results of further samples. An excerpt; count on the stated rates, not on these rows.

O=C(c1cccc(N2CCCC2=O)c1)N1CCC2(CC1)OCCO2
  MT1-MMP promoter: x
  WNV protease inh: 0.27
C[C@H]1CCCC(=O)CCCCCc2cc(O)cc(O)c2C(=O)O1
  MT1-MMP promoter: x
  WNV protease inh: 0.2
CC1CC2(O)c3no[n+]([O-])c3CCC2N1O (stereo unspecified)
  MT1-MMP promoter: x
  WNV protease inh: 2
O=C1C=Cc2ccccc2C1=O
  MT1-MMP promoter: x
  WNV protease inh: 0.18
COc1ccc(C(=O)N2CCCC2=O)cc1
  MT1-MMP promoter: x
  WNV protease inh: -0.86&0.24
CCOC(=O)N(c1ccccc1)P1(=S)OCC(C)O1 (stereo unspecified)
  MT1-MMP promoter: x
  WNV protease inh: -0.64
Cc1ccc(CN2CCN(CC(=O)N3CCC4(CC3)OCCO4)C2=O)cc1
  MT1-MMP promoter: x
  WNV protease inh: -0.44
CC1(C)Cc2c(sc3c2C(=O)NC(c2cccnc2)N3)CO1 (stereo unspecified)
  MT1-MMP promoter: x
  WNV protease inh: -0.1
CN(C)[C@@H]1C(=O)C(C(N)=O)=C(O)[C@@]2(O)C(=O)C3=C(O)c4c(O)ccc(Cl)c4[C@@](C)(O)C3C[C@@H]12 (stereo partly specified)
  MT1-MMP promoter: x
  WNV protease inh: 0.33
O=C(NC1(C(F)(F)F)Oc2ccc(Cl)cc2O1)N1CCC2(CC1)OCCO2 (stereo unspecified)
  MT1-MMP promoter: x
  WNV protease inh: 1.2
CN1CSC(=S)N(C)C1
  MT1-MMP promoter: x
  WNV protease inh: -0.66
O=c1[nH]c(=O)n(Cc2ccco2)c(O)c1C=NCc1cccs1
  MT1-MMP promoter: x
  WNV protease inh: 0.28
CCn1nc(-c2cccs2)nc2c(=O)n(C)c(=O)nc1-2
  MT1-MMP promoter: x
  WNV protease inh: -0.88
O=C(COc1ccccc1)N1CCN(CC2CC3C=CC2C3)CC1 (stereo unspecified)
  MT1-MMP promoter: x
  WNV protease inh: 0.67
COc1ccccc1N1CCN(Cc2c(F)cccc2Cl)CC1
  MT1-MMP promoter: x
  WNV protease inh: 0.17

One compound at a time (already shown):
CCOC(=O)N(c1ccccc1)P1(=S)OCC(C)O1 (stereo unspecified) as listed: MT1-MMP promoter: x; WNV protease inh: -0.64
O=C(COc1ccccc1)N1CCN(CC2CC3C=CC2C3)CC1 (stereo unspecified) as listed: MT1-MMP promoter: x; WNV protease inh: 0.67

Pulled one by one from above, 3 records:
O=C(NC1(C(F)(F)F)Oc2ccc(Cl)cc2O1)N1CCC2(CC1)OCCO2 (stereo unspecified)
  MT1-MMP promoter: x
  WNV protease inh: 1.2
CCn1nc(-c2cccs2)nc2c(=O)n(C)c(=O)nc1-2
  MT1-MMP promoter: x
  WNV protease inh: -0.88
O=C1C=Cc2ccccc2C1=O
  MT1-MMP promoter: x
  WNV protease inh: 0.18

The main list resumes, starting six compounds before the break.
O=C(NC1(C(F)(F)F)Oc2ccc(Cl)cc2O1)N1CCC2(CC1)OCCO2 (stereo unspecified)
  MT1-MMP promoter: x
  WNV protease inh: 1.2
CN1CSC(=S)N(C)C1
  MT1-MMP promoter: x
  WNV protease inh: -0.66
O=c1[nH]c(=O)n(Cc2ccco2)c(O)c1C=NCc1cccs1
  MT1-MMP promoter: x
  WNV protease inh: 0.28
CCn1nc(-c2cccs2)nc2c(=O)n(C)c(=O)nc1-2
  MT1-MMP promoter: x
  WNV protease inh: -0.88
O=C(COc1ccccc1)N1CCN(CC2CC3C=CC2C3)CC1 (stereo unspecified)
  MT1-MMP promoter: x
  WNV protease inh: 0.67
COc1ccccc1N1CCN(Cc2c(F)cccc2Cl)CC1
  MT1-MMP promoter: x
  WNV protease inh: 0.17
COC(=O)[C@@]1(Cc2ccc(F)cc2)[C@H]2c3cc(C(=O)N(C)C)[nH]c3C[C@H]2CN1C(=O)c1ccccc1
  MT1-MMP promoter: i
  WNV protease inh: x
COc1ccc(N2C(=O)CC(N3CCC(n4c(=O)[nH]c5ccccc54)CC3)C2=O)cc1 (stereo unspecified)
  MT1-MMP promoter: i
  WNV protease inh: x
CC1N(P(=O)(c2ccccc2)c2ccccc2)CC(O)(c2ccccc2)CC12CC2 (stereo unspecified)
  MT1-MMP promoter: i
  WNV protease inh: x
O=C(c1cccn2c(=O)c3ccccc3nc12)N1CCC2(CC1)OCCO2
  MT1-MMP promoter: i
  WNV protease inh: x
CCC/C=C(\CCC)C(NP(=O)(c1ccccc1)c1ccccc1)c1ccccc1 (stereo unspecified)
  MT1-MMP promoter: i
  WNV protease inh: x
O=C(c1cnn2c(C(F)(F)F)cc(-c3ccccc3)nc12)N1CCC2(CC1)OCCO2
  MT1-MMP promoter: i
  WNV protease inh: x
COC(=O)[C@@H]1C[C@H]2CC[C@H](O)C[C@H]2N1CC1CC1
  MT1-MMP promoter: i
  WNV protease inh: x
CCCN1[C@H](C(=O)OC)C[C@@H]2CC[C@@H](O)C[C@@H]21
  MT1-MMP promoter: i
  WNV protease inh: x
CN1CCN(c2c(N)c(=O)oc3ccccc23)CC1
  MT1-MMP promoter: i
  WNV protease inh: x
O=C(NCc1ccc(C(=O)N2CCC3(CC2)OCCO3)cc1)c1cccc(Br)c1
  MT1-MMP promoter: i
  WNV protease inh: x
O=c1c(C=NCc2cccs2)c(O)n(C2CCCCC2)c(=O)n1C1CCCCC1
  MT1-MMP promoter: i
  WNV protease inh: x
C=C[C@@H]1C[C@@]1(C)[C@@H](NP(=O)(c1ccccc1)c1ccccc1)c1ccccc1
  MT1-MMP promoter: i
  WNV protease inh: x
CCCCC/C(=N\O)c1c[nH]c2ccccc12
  MT1-MMP promoter: i
  WNV protease inh: x
CNC(=O)[C@H]1C[C@@H]1[C@H](NP(=O)(c1ccccc1)c1ccccc1)c1ccccc1
  MT1-MMP promoter: i
  WNV protease inh: x
Cc1cc(OCc2cc(C(=O)O)oc2C)c2c3c(c(=O)oc2c1)CCCC3
  MT1-MMP promoter: i
  WNV protease inh: x
O=C(C1CC(c2ccc(F)cc2)=NO1)N1CCC2(CC1)OCCO2 (stereo unspecified)
  MT1-MMP promoter: i
  WNV protease inh: x
COC(=O)[C@@H]1C[C@@]2(O)[C@H](O)[C@H](O)[C@H](O)C[C@H]2N1Cc1cccnc1
  MT1-MMP promoter: i
  WNV protease inh: x
